VCAM-1 inhibition: suppression of endothelial VCAM-1 upregulation – cell-based, plate reader, pooled HUVEC, TNFa stimulus (AID 454); HUVEC TNFa-induced VCAM-1 surface immunofluorescence, plate reader; numbers were filed only for top-ranked candidate wells; inhibition, % at 5 µM; 10,000 compounds, 0.2% hits;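 active = compound among top-ranked inhibitors of TNF-induced VCAM-1 adhesion protein staining, with the hit upheld by image or statistical review; inactive = the rest, including hits rejected on review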;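 note: 0% = TNFa with vehicle and 100% = cells without TNFa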
VCAM-1 up imaging: enhancers of VCAM-1 display on endothelial cells, imaging, high-content imaging, pooled HUVEC, TNFa stimulus (AID 457); Pooled HUVEC, TNFa-induced VCAM-1 immunofluorescence imaging; hits of this screen are not shown here; calls only; 10,000 compounds, 0.2% hits;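 active = a top-ranked rise in VCAM-1 staining upheld on image or statistical review; inactive = the rest, including candidates rejected on review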;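 note: compounds tested at 5 µM in the well; cells exposed to compound for 24 hours before fixing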
FPRL1 binder: human FPRL1 ligand, with FPR counter-screen | inhibition, %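 (tested at 6.7 µM)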 | 24,000 compounds, 0.3% hits | P25090 | AID 441 | FPRL1-expressing cells, fluorescent ligand binding inhibition, flow cytometry;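 note: 0% = buffer alone and 100% = receptor blocker peptide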
Target sequence (P25090 whole entry, looked up): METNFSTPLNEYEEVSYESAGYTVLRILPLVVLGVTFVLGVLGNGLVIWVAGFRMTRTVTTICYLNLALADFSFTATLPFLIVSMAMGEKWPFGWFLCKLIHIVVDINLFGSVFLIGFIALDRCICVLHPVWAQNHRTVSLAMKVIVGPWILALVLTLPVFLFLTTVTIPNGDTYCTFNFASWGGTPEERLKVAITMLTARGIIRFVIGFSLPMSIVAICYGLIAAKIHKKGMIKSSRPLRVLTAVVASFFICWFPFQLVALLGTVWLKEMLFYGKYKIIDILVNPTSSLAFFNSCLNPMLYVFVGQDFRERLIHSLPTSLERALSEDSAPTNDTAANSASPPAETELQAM
FPR ligand: ligands of human FPR, also counter-screen for FPRL1 ligands; FPR-expressing cells, fluorescent ligand binding, flow cytometry; inhibition, %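 (tested at 6.7 µM)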; 24,000 compounds, 0.74% hits; AID 440;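 note: 0% = buffer wells and 100% = receptor blocker peptide wells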
Target sequence (P21462 whole entry, looked up): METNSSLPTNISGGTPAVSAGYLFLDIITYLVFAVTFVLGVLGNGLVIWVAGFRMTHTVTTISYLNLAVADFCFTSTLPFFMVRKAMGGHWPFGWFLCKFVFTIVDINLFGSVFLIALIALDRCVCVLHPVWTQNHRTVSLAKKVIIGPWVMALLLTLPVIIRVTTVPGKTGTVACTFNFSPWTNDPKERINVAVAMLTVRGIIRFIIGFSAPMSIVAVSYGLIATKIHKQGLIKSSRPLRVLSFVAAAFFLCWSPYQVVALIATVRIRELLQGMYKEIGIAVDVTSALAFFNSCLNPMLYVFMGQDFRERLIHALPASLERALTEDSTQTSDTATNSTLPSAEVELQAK
VCAM-1 down imaging: suppression of endothelial VCAM-1 upregulation – imaging, high-content imaging, pooled HUVEC, TNFa stimulus (AID 456); inhibition, % at 5 µM, or IC50 in µM where a hit was titrated; HUVEC TNFa-induced VCAM-1 surface expression, immunofluorescence imaging; numbers were filed only for top-ranked candidate wells; 10,000 compounds, 0.2% hits;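 active = top tenth filtered wells with inhibition above zero that passed visual or statistical confirmation; inactive = the rest, including hits rejected on review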;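 note: 0% = stimulated vehicle wells and 100% = unstimulated cells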
Active calls of the source: *; i = inactive; . = no result given.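 Rule for the calls, unless noted: active = mean above 30%; inconclusive = self-fluorescent; inactive = the rest.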 These rows are one share of the data. The share of hits here may be higher or lower than overall.

Start of the data: the first 2 entries as a preview:
SMILES	VCAM-1 inhibition	VCAM-1 up imaging	FPRL1 binder	FPR ligand	VCAM-1 down imaging
COc1ccc(NC(=O)C(CCS(C)(=O)=O)NC(C)=O)cc1 (stereo unspecified)	.	.	-3	0	.
OC(C#Cc1ccccn1)c1cccs1 (stereo unspecified)	.	.	-1	5	.

All compounds of this part, from the start:
SMILES	VCAM-1 inhibition	VCAM-1 up imaging	FPRL1 binder	FPR ligand	VCAM-1 down imaging
COc1ccc(NC(=O)C(CCS(C)(=O)=O)NC(C)=O)cc1 (stereo unspecified)	.	.	-3	0	.
OC(C#Cc1ccccn1)c1cccs1 (stereo unspecified)	.	.	-1	5	.
Cc1cc(NC(=O)CSc2cn(CCNC(=O)c3ccc(F)cc3)c3ccccc23)no1	.	.	1	4	.
COc1ccc(-c2nnc(Nc3nc4c(OC)cccc4s3)o2)c(OC)c1	.	.	6	62*	.
O=C(CSc1nnc(NC(=O)C2CCC2)s1)NC1CC1	i	i	-1	-9	i
Cc1cc(C)nc(N2CCC(C(=O)Nc3ccc(Oc4ccccc4)cc3)CC2)n1	i	i	-4	-5	i
Cc1c(C(=O)NCc2ccc3c(c2)OCO3)oc2ccc(S(=O)(=O)N3CCCC3)cc12	.	.	-6	-8	.
Cc1nc2c(c(C)nn2-c2ccccc2)c(C)c1Cl	.	.	0	-3	.
Cn1cccc1Cc1nnc(SCC(N)=O)n1-c1ccc(F)cc1	i	i	-2	4	i
O=S(=O)(c1ccc(F)cc1)N1CCC(N2CCCC2)CC1	i	i	-6	1	i
CC(=O)Oc1ccc(C(c2ccc(OC(C)=O)cc2)c2ccccn2)cc1	i	i	-5	7	i
CCn1cc(C(=O)O)c(=O)c2ccc(C)nc21	i	i	-26	-3	i
CC(C)NC(=O)C1CCCN(S(=O)(=O)c2cccs2)C1 (stereo unspecified)	.	.	-9	7	.
Cc1ccsc1-c1nc(CSCC(=O)NCCN2CCCC2)c(C)o1	.	.	-2	-6	.
COC(=O)CNC(=O)C1CCCN1C(=O)CNC(=O)OC(C)(C)C (stereo unspecified)	.	.	3	-3	.
Cc1nnc(NC(=O)NCN2C(=O)C3C4C=CC(C4)C3C2=O)s1 (stereo unspecified)	.	.	11	0	.
CCOC(=O)N1CCC(N2C(=O)c3ccccc3C2Nc2ccccc2C)CC1 (stereo unspecified)	i	i	5	-2	i
COc1ccc(N(CC(=O)NCc2cccnc2)S(=O)(=O)c2c(C)nn(C)c2C)cc1	.	.	-2	-2	.
CC(CCc1ccccc1)NC(=O)c1cc2sccc2n1C (stereo unspecified)	.	.	-3	5	.
CCOC(=O)N1CCC(N2Cc3cccc(C(=O)NCc4ccccn4)c3C2=O)CC1	.	.	-1	-3	.
CCN(CC)C(=O)C1CC(=O)N(c2ccc(F)c(Cl)c2)C1 (stereo unspecified)	.	.	24	2	.
COc1ccc(S(=O)(=O)Nc2cccc(SC)c2)cc1OC	.	.	-3	6	.
CS(=O)(=O)Nc1ccc(C(=O)NCCc2ccccc2)cc1	i	i	3	4	i
CCOc1ccccc1NC(=O)CN1C(=O)COc2ccc(Cl)cc21	.	.	-4	-3	.

Whole records from above. Order of values: VCAM-1 inhibition, VCAM-1 up imaging, FPRL1 binder, FPR ligand, VCAM-1 down imaging
Profile of `COc1ccc(N(CC(=O)NCc2cccnc2)S(=O)(=O)c2c(C)nn(C)c2C)cc1` = ., ., -2, -2, .
Profile of `CCOc1ccccc1NC(=O)CN1C(=O)COc2ccc(Cl)cc21` = ., ., -4, -3, .

(cont.)
SMILES	VCAM-1 inhibition	VCAM-1 up imaging	FPRL1 binder	FPR ligand	VCAM-1 down imaging
Cc1nc2c(Br)c3nc(C(F)(F)F)[nH]c3c(Br)c2[nH]1	.	.	3	6	.
COc1ccc(-c2nc(CN3CCC(C(=O)NC4CCCc5ccccc54)CC3)c(C)o2)cc1OC (stereo unspecified)	.	.	-2	-4	.
CCOC(=O)C1CCN(C(=O)c2cn(C)c(=O)c3cc(OC)c(OC)cc23)CC1	.	.	-7	-5	.
COc1cccc(C2CC(c3cccc(Br)c3)n3nc(N)nc3N2)c1 (stereo unspecified)	.	.	7	3	.
CCCCCC(=O)Nc1cccc(-c2nc3ncccc3o2)c1	.	.	9	-4	.
Cc1ccc(-c2nnn(CC(=O)N(Cc3ccco3)C(C(=O)NC(C)(C)C)c3cccs3)n2)o1 (stereo unspecified)	i	i	-6	3	i
Cn1c(CNc2nc(-c3ccccc3)cs2)nnc1SCC(=O)N1CCc2ccccc21	i	i	7	3	i
CCCn1c(SCC(=O)Nc2ccccc2C(=O)OC)nc2c1c(=O)n(C)c(=O)n2C	i	i	-3	5	i
CCOc1ccc(-n2c(SCC(=O)Nc3ccc(OC)cc3OC)nc3c(c2=O)SCC3)cc1	.	.	-8	-6	.
CCCCCC(=O)OC(CN1CCCCC1)CN1CCCC1=O (stereo unspecified)	.	.	-2	-7	.
CN(C)Cc1c(O)ccc2oc(Cc3ccccc3)cc12	72	i	1	-5	i
CC(=O)NC(CCS(C)(=O)=O)C(=O)Nc1nc(C)cs1 (stereo unspecified)	.	.	4	-2	.
Cc1ccc2cc3cc(C(=O)N(C)C4CCCCC4)oc3nc2c1	.	.	13	-3	.
O=C(Nc1ccc(N2C(=O)C3C4C=CC(C4)C3C2=O)cc1)Nc1cccnc1 (stereo unspecified)	i	i	0	0	i
CCOC(=O)c1c(NC(=O)c2cccs2)sc2c1CCN(C(=O)OCC)C2	72	i	-20	3	i
COc1cc(CNCCC2CCOC(C)(C)C2)ccc1O (stereo unspecified)	.	.	5	0	.
COc1ccccc1CNC(=O)C1CCCN(S(C)(=O)=O)C1 (stereo unspecified)	.	.	-10	-11	.
Cc1noc(C)c1S(=O)(=O)N1CCC(C(=O)N2CCN(C(=O)c3ccco3)CC2)CC1	.	.	-2	-9	.
CCOC(=O)CC(=O)CSc1[nH]c(=O)cc(C)c1C#N	i	i	2	-3	i
CC(NC(=O)c1ccccc1NC(=O)c1ccco1)C(=O)O (stereo unspecified)	i	i	6	1	i
CCOC(=O)C1CCN(c2c(NCCCN(CC)Cc3ccccc3)c(=O)c2=O)CC1	.	.	-3	-2	.
Cc1nc2ccccn2c1/C(O)=C1\C(=O)C(=O)N(CCN2CCOCC2)C1c1ccncc1 (stereo unspecified)	.	.	3	-2	.
COc1ccc2cc(CCNC(=O)CC(C)(C)C)c(=O)[nH]c2c1	.	.	1	-2	.
CCCCCc1c(C)nc(SCC(=O)O)[nH]c1=O	i	i	9	-1	i
CCCCOC(=O)c1[nH]c2c(c1C)C(=O)CC(c1cc(OC)c(OC)c(OC)c1)C2 (stereo unspecified)	i	i	3	1	i
CCOC(=O)Cc1csc(NC(=O)CCNS(=O)(=O)c2ccc3c(c2)CCC(=O)N3)n1	.	.	-2	0	.
CCOC(=O)c1oc2cc(O)cc(C)c2c(=O)c1-c1cscn1	.	.	6	8	.
CCOC(=O)N1CCN(C(=O)CCNS(=O)(=O)c2cc(Br)cnc2N)CC1	.	.	-6	-2	.
CCOC(=O)c1c(CN(CC)CC)oc2cc(Br)c(O)cc12	.	.	5	-3	.
COc1ccc(S(=O)(=O)NCC2CCC(C(=O)NCc3ccco3)CC2)cc1 (stereo unspecified)	.	.	1	0	.
CC1CCN(S(=O)(=O)c2ccc3ncn(CC(=O)N(C)Cc4ccccc4)c(=O)c3c2)CC1	.	.	1	0	.
Cc1ccc(-c2nc(CSCC(=O)N3CCN(c4ccccn4)CC3)c(C)o2)cc1	.	.	-4	8	.
O=C(O)C(c1ccccc1)N1CCCC1 (stereo unspecified)	i	i	1	8	i
CC1CCN(CCNC(=O)CCS(=O)(=O)c2ccc(Br)cc2)CC1	.	.	10	-10	.
COC(=O)c1sc(S(=O)(=O)N2CCN(c3ccccc3)CC2)c(C(=O)OC)c1C	i	i	-2	-1	i
Cc1nc2ccc(S(=O)(=O)NC(C(=O)NCc3ccco3)C(C)C)cc2s1 (stereo unspecified)	.	.	-5	-9	.
O=C(CN1C(=O)CCS(=O)(=O)c2ccccc21)NCc1ccc(F)cc1	i	i	2	-6	i
Cc1cnc(C(=O)Nc2ccc(-n3cnnn3)cc2)cn1	i	i	-14	-18	i
CN(CCNC(=O)C1CCN(S(=O)(=O)c2cnc[nH]2)CC1)Cc1ccccc1	.	.	4	1	.
CCOc1ccc(NC(=O)c2nnn(CC(=O)Nc3ccccc3OC)c2N)cc1	.	.	5	-2	.
COc1ccccc1CNC(=O)C(CCSC)NS(=O)(=O)c1ccc2c(c1)oc(=O)n2C (stereo unspecified)	.	.	1	6	.
COc1ccc(CC(NC(C)=O)C(=O)NC2CCN(c3nc(C)cc(C)c3C#N)CC2)c(OC)c1 (stereo unspecified)	i	i	12	-5	i
O=C(CCCCCNS(=O)(=O)c1ccc(Br)cc1)NCCN1CCOCC1	.	.	0	-4	.
CCC(=O)N/C(N)=N/c1nc(C)c2cc(OC)ccc2n1	i	i	-1	-2	i
CC1Cc2nc(SCC(=O)N3CCCc4ccccc43)n(C)c(=O)c2S1 (stereo unspecified)	i	i	1	3	i
Cc1ccc(-c2nnc(SCC(=O)N3CC(C)CC(C)C3)o2)cc1C (stereo unspecified)	i	i	-8	0	i
O=C(Cn1cnc2c(nnn2Cc2ccc(F)cc2)c1=O)NCc1ccc2c(c1)OCO2	.	.	-2	4	.
O=C(Cn1nnc2c(cnn2-c2ccc(F)cc2)c1=O)c1ccccc1F	i	i	0	-4	i
O=C(NCCN1CCN(c2cccc(Cl)c2)CC1)c1cccn2c(=O)c3ccccc3nc12	.	.	17	-7	.
CCc1[nH]nc2c1C(c1cccc(OC(=O)N3CCOCC3)c1)C(C#N)=C(N)O2 (stereo unspecified)	i	i	13	14	i
CCc1ccc(NC(=O)CCN2C(=O)c3cccnc3C2=O)cc1	.	.	7	1	.
CC1CCN(CCNC(=O)CN(C)S(=O)(=O)c2cccc3nsnc23)CC1	.	.	-2	-2	.
Cc1ccc(N(C(=O)c2ccc(Br)o2)C2C=CS(=O)(=O)C2)cc1 (stereo unspecified)	.	.	2	2	.
CC(=O)c1ccc(OCC(O)CN2C(C)CCCC2C)cc1 (stereo unspecified)	.	.	2	0	.
FC(F)(F)c1cc(-c2ccco2)nc(N2CCOCC2)n1	i	i	2	-5	i
Cc1cccc(NC(=O)C2CCCN(S(=O)(=O)c3cccc4cccnc34)C2)c1 (stereo unspecified)	.	.	0	0	.
COc1c(S(=O)(=O)n2nc(C)cc2C)ccc(Cl)c1Cl	i	i	-5	-6	i
CC(=O)c1c(C)[nH]c(C(=O)N2CCN(C(=O)c3ccco3)CC2)c1C	i	i	3	-5	i
O=C(NCC1CCCO1)C1C2C=CC3(CN(Cc4cccs4)C(=O)C13)O2 (stereo unspecified)	.	.	11	-7	.
CCN1CCN(CCCNC(=O)c2cc3sccc3n2CC)CC1	i	i	8	-2	i

2 entries picked at random from the list so far:
SMILES	VCAM-1 inhibition	VCAM-1 up imaging	FPRL1 binder	FPR ligand	VCAM-1 down imaging
CCOC(=O)N1CCC(N2C(=O)c3ccccc3C2Nc2ccccc2C)CC1 (stereo unspecified)	i	i	5	-2	i
Cn1cccc1Cc1nnc(SCC(N)=O)n1-c1ccc(F)cc1	i	i	-2	4	i

Next records follow.
SMILES	VCAM-1 inhibition	VCAM-1 up imaging	FPRL1 binder	FPR ligand	VCAM-1 down imaging
CCCOc1cc(C)c(S(=O)(=O)N2CCN(C)CC2)cc1C	i	i	-3	0	i
COCCN1C(=O)C(=O)/C(=C(/O)c2cccc(S(=O)(=O)N(C)C)c2)C12C(=O)N(C)c1ccccc12 (stereo unspecified)	i	i	4	18	i
COc1cccc(C(=O)Nc2ccc(C(=O)O)cc2)c1	.	.	4	-2	.
CNC(=O)Nc1cccc(C(F)(F)F)c1	i	i	-5	-4	i
CCOc1ccc2[nH]c(O)c(NC(C)=O)c2c1	i	i	-1	2	i
CCCCNC(=O)c1ccc2c(c1)ncn2C1CCCCC1	.	.	4	5	.
COc1cccc(C(c2sc3nc(C)nn3c2O)N2CCC3(CC2)OCCO3)c1 (stereo unspecified)	.	.	2	1	.
O=C(Cc1c(O)c2ccccc2[nH]c1=O)NCc1ccc(F)cc1	i	i	3	-2	i
COc1cccc(C(=O)NCc2n[nH]c(=S)n2-c2cccc(C)c2)c1	.	.	-9	-5	.
O=C1CC(c2ccc(Cl)cc2)n2nc(N3C(=O)c4ccccc4C3=O)nc2N1 (stereo unspecified)	i	i	0	-1	i
O=C(c1ccccc1S(=O)(=O)NCc1ccccc1)N1CCCC1	.	.	-1	0	.
CC(C)Oc1ccc(/C(O)=C2/C(=O)C(=O)N(CCN3CCOCC3)C2c2ccccc2)cc1 (stereo unspecified)	.	.	-3	-6	.
CCOC(=O)N1CCN(S(=O)(=O)c2ccc3c(c2)CCN3C(=O)C2CCC2)CC1	.	.	0	2	.
COCCN(CC(=O)NCc1ccccc1)C(=O)CCC(=O)Nc1ccccn1	i	i	0	-7	i

From PubChem
